Source: PubChem (Johns Hopkins Ion Channel Center)
KCNQ2 pot – potentiators of rat KCNQ2 potassium channel | Potassium voltage-gated channel subfamily KQT member 2 (Rattus norvegicus), O88943 | CHO-K1 KCNQ2, FluxOR thallium flux fluorescence; stronger effect = higher value | B-score at 10 µM | hit rate 0.54% among 310,000 | AID 2239, 2010;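 active means fluorescence ratio B-score at least 3 SD of library B-scores, with initial fluorescence B-score within 3 SD, cut at about 5.3 in these data; same plate scores as AID 2156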;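 further: B-score of peak minus minimum over baseline fluorescence ratio after K+ and Tl+ stimulus; positive B-score means potentiation of KCNQ2 with more thallium influx and brighter signal; only the inactives scoring about 0 or higher are listed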
Target sequence (O88943 whole entry, looked up): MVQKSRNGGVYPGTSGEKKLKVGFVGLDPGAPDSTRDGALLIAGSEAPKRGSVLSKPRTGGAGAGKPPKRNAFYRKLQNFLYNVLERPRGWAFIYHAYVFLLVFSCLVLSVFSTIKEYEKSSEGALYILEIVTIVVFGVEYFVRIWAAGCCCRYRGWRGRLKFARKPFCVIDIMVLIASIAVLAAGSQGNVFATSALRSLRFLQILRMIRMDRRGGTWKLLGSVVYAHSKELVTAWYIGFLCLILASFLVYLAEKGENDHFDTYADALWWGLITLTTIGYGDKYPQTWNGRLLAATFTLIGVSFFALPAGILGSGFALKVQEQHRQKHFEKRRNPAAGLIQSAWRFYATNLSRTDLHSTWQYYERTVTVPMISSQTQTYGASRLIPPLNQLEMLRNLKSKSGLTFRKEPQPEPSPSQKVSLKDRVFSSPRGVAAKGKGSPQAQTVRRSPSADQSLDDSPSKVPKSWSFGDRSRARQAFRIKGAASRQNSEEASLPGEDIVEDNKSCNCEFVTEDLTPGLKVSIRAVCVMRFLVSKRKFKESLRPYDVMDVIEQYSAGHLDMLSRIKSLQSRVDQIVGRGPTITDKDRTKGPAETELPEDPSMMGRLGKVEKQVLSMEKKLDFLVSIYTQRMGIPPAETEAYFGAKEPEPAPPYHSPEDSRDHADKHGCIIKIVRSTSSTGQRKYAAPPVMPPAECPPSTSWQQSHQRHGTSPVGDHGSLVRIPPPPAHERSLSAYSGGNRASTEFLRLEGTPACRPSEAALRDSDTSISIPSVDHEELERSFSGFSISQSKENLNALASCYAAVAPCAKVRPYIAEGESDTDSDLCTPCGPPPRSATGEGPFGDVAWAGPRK
KCNQ2 pot baseline – further read-out of KCNQ2 pot, marked with its call; B-score; compound at 10 µM; measured here: initial fluorescence intensity artifact check;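 brightness before thallium and not channel activity; 0 = typical well and far values either way flag optical interference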
The depositor's hits bear a star. The list is partial; count on the stated rates, not on these rows.

The first three compounds (preview)
smiles,KCNQ2 pot,KCNQ2 pot baseline
CCc1nnc(NC(=O)c2cc(S(=O)(=O)N3CCOCC3)ccc2N2CCCCC2)s1,0.76,-0.28
CCN(CC)c1ccc(NC(=O)COC(=O)COc2ccccc2[N+](=O)[O-])cc1,0.06,0.21
Cc1ccccc1C(=O)N1N=C(c2cccc(NS(C)(=O)=O)c2)CC1c1cccs1 (stereo unspecified),1.1,0.9

Results (from the top)
smiles,KCNQ2 pot,KCNQ2 pot baseline
CCc1nnc(NC(=O)c2cc(S(=O)(=O)N3CCOCC3)ccc2N2CCCCC2)s1,0.76,-0.28
CCN(CC)c1ccc(NC(=O)COC(=O)COc2ccccc2[N+](=O)[O-])cc1,0.06,0.21
Cc1ccccc1C(=O)N1N=C(c2cccc(NS(C)(=O)=O)c2)CC1c1cccs1 (stereo unspecified),1.1,0.9
O=C(OCc1cc([N+](=O)[O-])cc2c1OCOC2)c1ccccn1,1.27,-0.5
COc1ccc(CNc2ncc(-c3ccc(F)cc3)n2C)cc1OC,0.32,-0.01
COc1nc(Nc2ccc(C(C)C)cc2)nc(OC)n1,3.16,0.04
COc1ccc(NC(=S)Nc2ccc(C)c(S(=O)(=O)N3CCCCC3)c2)cc1,0.16,-0.34
COCCCNC(=O)/C(C#N)=C/c1c(N2CCN(c3ccc(OC)cc3)CC2)nc2c(C)cccn2c1=O,0.21,0.06
CCCn1c(=N)c(C(=O)NCC2CCCO2)cc2c(=O)n3cccc(C)c3nc21 (stereo unspecified),1.86,-0.09
C/C=C1\C(OC2OC(CO)C(O)C(O)C2O)OC=C(C(=O)OC)C1CC(=O)OCC1C(C)C(OC(=O)CC2C(C(=O)OC)=COC(OC3OC(CO)C(O)C(O)C3O)/C2=C\C)CC1C(CO)CO (stereo unspecified),0.84,-2.09
CCOc1ccccc1N1CCN(Cc2cnc(-c3ccccc3)[nH]2)CC1,0.14,-0.42
COc1cccc(/C=N/Nc2ncnc(N)c2[N+](=O)[O-])c1OC,0.8,0.14
CC(=O)Nc1ccc(N2N=C(C)C(N=Nc3ccccc3)C2=O)cc1 (stereo unspecified),0.08,-0.45
CCN1CCN(CCCNC(=O)CCCn2nc(C)c3sc4ccccc4c3c2=O)CC1,2.1,-0.88
O=C(CC12CC3CC(CC(C3)C1)C2)NC(=S)N1CCCCC1,0.54,-1
COc1cccc(OC)c1C(=O)Nc1cc2c(cc1N1CCOCC1)n(C)c(=O)n2C,0.78,-1.48
O=S(=O)(Nc1cccnc1)c1ccc(F)cc1,0.08,0.59
O=C(OCC(=O)N1CCN(c2ccccc2)CC1)c1ccc(Cl)cc1[N+](=O)[O-],1.85,0.37
O=S(=O)(Nc1ccccn1)c1ccc(-n2cccn2)cc1,0.03,2
C[C@H](NC(=O)C1CC(=O)N(c2ccc3c(c2)OCO3)C1)C(=O)NC1CCCC1 (stereo partly specified),0.84,0.8
Cc1ccc2[nH]c3c(c2c1)CCCC3=O,0.98,0.3
CCc1ccc(NC(=O)c2cccc(C(=O)Nc3ccc(CC)cc3)n2)cc1,0.46,-0.08
C/[N+]([O-])=C\c1ccc([N+](=O)[O-])o1,0.17,-2.24
Cc1ccc(S(=O)(=O)NNC2=NCCCCC2)cc1,0.29,-0.69
CC(=O)Oc1cccc(-c2nc3ccccc3c(=O)o2)c1,0.38,1
CCn1cc(C(=O)O)c(=O)c2cc(F)c(N3CCN(C(=S)NC(=O)c4ccccc4)CC3)cc21,0.9,-1.73
OCCSc1nc(-c2cccnc2)nc2ccccc12,1.25,-0.51
CCOCCCNC(=O)c1c[nH]c2cc(C)ccc2c1=O,1.22,0.95
COc1ccc(NC(=O)CSCC(=O)NCCc2ccccn2)cc1,0.26,-0.02
CCOc1ccc(N(CC(=O)Nc2c(C)n(C)n(-c3ccccc3)c2=O)S(=O)(=O)c2ccc(F)cc2)cc1,0.05,0.62

Grouped by structure, those above with a nitro group on carbon (5)
smiles,KCNQ2 pot,KCNQ2 pot baseline
CCN(CC)c1ccc(NC(=O)COC(=O)COc2ccccc2[N+](=O)[O-])cc1,0.06,0.21
O=C(OCc1cc([N+](=O)[O-])cc2c1OCOC2)c1ccccn1,1.27,-0.5
COc1cccc(/C=N/Nc2ncnc(N)c2[N+](=O)[O-])c1OC,0.8,0.14
O=C(OCC(=O)N1CCN(c2ccccc2)CC1)c1ccc(Cl)cc1[N+](=O)[O-],1.85,0.37
C/[N+]([O-])=C\c1ccc([N+](=O)[O-])o1,0.17,-2.24

Later entries:
smiles,KCNQ2 pot,KCNQ2 pot baseline
CCc1ccc(OC(C)C(=O)Nc2ccc(S(=O)(=O)Nc3nccs3)cc2)cc1 (stereo unspecified),0.72,0.03
CCCn1nnnc1SCC(=O)NNC(=O)c1ccco1,1.46,3.17
COCCNC(=O)CS(=O)Cc1nc(-c2ccc(OC)cc2)oc1C (stereo unspecified),0.35,0.77
CC(C)C[C@H](N)c1nnc(S(=O)(=O)Cc2ccc(F)cc2)o1,0.15,0.94
O=C1CC(C(=O)Nc2ccccc2)N=C(N2CCOCC2)N1 (stereo unspecified),1.46,1.02
CCOC(=O)Nc1ccc2c(COC(=O)CNS(=O)(=O)c3ccc(NC(C)=O)cc3)cc(=O)oc2c1,0.03,-0.11
COC(=O)c1ccc2c(=O)n(Cc3ccco3)c(SCC(=O)Nc3ccccc3Cl)nc2c1,0.84,-1.1
COc1cc(C(=O)COC(=O)c2cnc(C)cn2)ccc1OC(F)F,0.47,1.29
Cc1cc(Br)ccc1SCC(=O)OCC(=O)NCc1ccc2c(c1)OCO2,0.26,-0.12
COc1ccc(NC(=O)Cn2c(=O)n(-c3ccc(CC(=O)NCc4ccco4)cc3)c(=O)c3ccccc32)cc1,0.7,1.23
O=C(NCc1ccccc1)c1ccc(CN2CCOCC2)cc1,1.55,0.11
COc1ccccc1C(=O)Nc1cccc(NC(=O)c2ccccc2OC)n1,0.48,0
CC1CC(=O)Nc2ccccc2N1C(=O)CN1CCN(c2ccccc2)CC1 (stereo unspecified),0.25,-2.32
O=C(N/N=C\c1ccc2c(c1)OCO2)c1ccco1,1.3,-0.99
CC(C)(CNC(=O)CCNC(=O)c1ccc(Br)cc1)N1CCOCC1,0.39,-0.09
CCCCCCCCOC(=O)CCn1[nH]c(=O)c2ccccc2c1=O,0.6,-0.91
COc1ccc(CNC(=O)c2c(-c3cc(Cl)c(OC)c(Cl)c3)noc2C)cc1,1.13,0.93
Cc1c(-c2nnc(-c3ccc(C(F)(F)F)cc3)o2)cnn1-c1ccccc1,0.67,1.47
Oc1c(N=Nc2ccccc2)sc2ccccc12,1.43,0.46
COc1ccc(C2CC(c3ccc(C)cc3)Nc3nc(N)nn32)cc1 (stereo unspecified),0.24,2.55
CSCCC(NC(=O)c1cccc([N+](=O)[O-])c1)C(=O)OCC(=O)N1CCCC1=O (stereo unspecified),0.16,1.68
O=C(N/N=C/c1ccc2ccccc2c1)c1ccc(COc2ccc3c(c2)CCC3)o1,0.11,0.05
N#CCCN(C(=O)c1ccco1)c1ccccc1,0.42,-0.47
COc1ccc(-c2csc(NC(=O)c3c(OC)cccc3OC)n2)cc1,0.11,0.69
Cc1ccc(-c2nn(-c3ccccc3)cc2C=O)o1,0.35,-0.63
COc1ccc(-c2nc(N)n[nH]2)cc1,0.01,-0.92
COc1cc(OC)c(OC)cc1/C=N/NC(=O)C[n+]1ccccc1,1.46,0.12
CC(C)Cn1c(N)c(C(=O)COC(=O)c2ccc(O)cc2O)c(=O)n(C)c1=O,1.54,0.06
CC(C)C(=O)Nc1ccc(S(=O)(=O)Nc2ccccn2)cc1,0.64,0.28
O=C(C1CCN(S(=O)(=O)c2ccccc2)CC1)N1CCN(Cc2ccccc2)CC1,0.65,1.15
CCCCOc1ccccc1/C=N/NC(=O)CC#N,0.93,1.9
CC(=O)C1C(c2ccccc2OC(F)F)NC(=O)NC1(O)C(F)(F)F (stereo unspecified),0.04,4.1
COc1ccc(COC(=O)CCN=C2NS(=O)(=O)c3ccccc32)cc1F,0.58,0.66
COC(=O)COc1ccc(-c2nn(C)c(=O)c3ccccc23)cc1,1.6,1.28
O=C(NNC(=O)c1cc(-c2ccncc2)nc2ccccc12)c1ccccc1O,0.94,-1.62
CCCCCCCC(=O)NNC(=O)Cc1ccccc1,0.67,-0.02
Cc1oc(-c2ccc(Cl)cc2)nc1CN1CCC(C(=O)NCCCN2CCOCC2)CC1,0.21,0.64
CCN(CC)CCn1c2c(c(SCC(=O)Nc3ccc(C(C)C)cc3)nc1=O)CCC2,1.35,0.51
Nc1ccc(O)c2ccccc12,5.27,-0.31
O=C(CCS(=O)(=O)c1ccccc1)N1CCN(c2ccccc2F)CC1,1.38,-1.19
CC(C)(C)C1CCC(OCC(O)CN2CCN(Cc3ccccc3)CC2)CC1 (stereo unspecified),0.16,-0.12
Cc1ccc(-n2c(=O)c3c4c(sc3n3c(C)nnc23)COC(C(C)C)C4)cc1 (stereo unspecified),1.23,-0.02
Cn1c(=O)n(C)c2cc([N+](=O)[O-])c(N3CCN(C(=O)c4ccc(F)cc4)CC3)cc21,1.56,0
CSCCC(NS(=O)(=O)c1ccc2c(c1)OCCO2)C(=O)NCCc1ccccn1 (stereo unspecified),0.76,3.52
CCOc1cc(Br)ccc1S(=O)(=O)N1CCC(C(N)=O)CC1,1.1,0.09
Cc1cccc(C)c1N1CCN(C(=O)N2CCOCC2)CC1,0.96,-0.79
Cc1noc(NS(=O)(=O)c2ccc(NC(=O)C34CC5CC(C3)CC(n3cnc(Cl)n3)(C5)C4)cc2)c1C,0.04,-1.03
COc1ccc(N(CC(=O)Nc2ccc3c(c2)OCCO3)S(=O)(=O)c2c(C)noc2C)cc1,2.13,-0.89
CCCc1cc(=O)n2[nH]c(Cc3ccccc3)nc2n1,0.43,0.22
O=C(c1cn(-c2ccccc2)nc1-c1cc2ccccc2oc1=O)N1CCOCC1,1.2,0.81
COC(=O)c1ccc(OCC(O)CNCC(c2ccc(OC)cc2)N(C)C)c(OC)c1 (stereo unspecified),0.54,0.63
CC(c1ccc(F)cc1)n1cc(C(=O)NCc2ccccn2)nn1 (stereo unspecified),1.43,-1.23
CCOC(=O)CSc1nc2c(cnn2-c2ccc(Cl)cc2)c(=O)[nH]1,0.25,1.37
CN(C)C(=S)SCC(=O)NC(=O)NC(C)(C)C,0.08,0.41
CC1CCCCC1NC(=O)c1cncc(Br)c1 (stereo unspecified),1.16,-0.78
CCCCc1nc(SCC(=O)N2CCOCC2)c2c(=O)n(C)c(=O)n(C)c2n1,5.36*,-2.01*
Cc1ccc(/C=C/C(=O)NCCCN2CCN(CCCNC(=O)/C=C/c3ccc(C)o3)CC2)o1,1.07,0.01
Cc1cccc(NC(=O)c2ccc(OCC(=O)NCc3ccccc3)cc2)c1C,1.58,-0.32
Cn1c(Cn2nnc3ccccc32)nnc1SCC(=O)N1c2ccccc2Sc2ccccc21,0.03,-0.46
Nc1cc(OC(=O)c2ccc(F)cc2)nn1S(=O)(=O)c1ccccc1,0.28,-0.29

Next section:
smiles,KCNQ2 pot,KCNQ2 pot baseline
CCOC(=O)c1nnn(-c2nonc2N)c1COc1cc(C)c(Cl)c(C)c1,0.09,-1.86
Cc1nc(-c2cccnc2)sc1C(=O)Nc1ccc(C(F)(F)F)cc1,0.33,-0.23
COc1ccc(S(=O)(=O)N2CCN(CC(=O)Nc3cc(C(F)(F)F)ccc3Cl)CC2)cc1,0.8,0.92
COC(=O)CCCC1=CC2=CC(=O)C(C)(OC(=O)c3cccs3)C(=O)C2=CN1c1cccc(C#N)c1 (stereo unspecified),0.87,1.43
CC(C)Cc1nnc(NC(=O)CCC(=O)N2CCOCC2)s1,0.6,-1.05
CCSc1nnc([C@H](C)NC(=O)OC(C)(C)C)o1,0.91,-0.36
CCOc1cc(N2CCOCC2)c(OCC)cc1NC(C)C(=O)N1CCN(CC)CC1 (stereo unspecified),0.96,0.04
CC(NC(=O)c1cc(S(=O)(=O)N(C)C)ccc1Cl)c1ccc(-n2ccnc2)cc1 (stereo unspecified),1.58,-0.86
Cc1ccc([N+](=O)[O-])cc1S(=O)(=O)N1CCNCC1,0.5,-1.83
COc1ccc(CCNS(=O)(=O)c2ccc3c(c2)NC(=O)CS3)cc1OC,1.04,0.37
Cn1c(CCNC(=O)c2ccco2)nc2cc(NC(=O)c3ccccc3)ccc21,0.37,-1.11
CCO[C@@H]1OC(C(=O)N2CCN(Cc3ccc4c(c3)OCO4)CC2)=C[C@H](c2coc3ccccc3c2=O)[C@H]1CCCO,0.68,-0.22
CCn1nnc(NC(=O)c2ccc(Br)o2)n1,0.04,-1.96
O=C(COC(=O)c1nc(Cl)ccc1Cl)NC(=O)c1ccccc1,0.77,-1.46
